NPYLR7 agonist = mosquito NPYLR7 agonism; HEK293T NPYLR7/Galpha15, GCaMP6s calcium fluorescence; 0.15% of 270,000 active; activation, % at 10 µM; in the data active means activation above about 40%;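 further: 0% = vehicle and 100% = reference agonist at the receptor; some compounds past the cut are filed as inactive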
NPYLR7 agonist max-min = also measured in NPYLR7 agonist; calls as there; activation, %; measured here: Max-Min RFU normalised activation; some inactives read as strong as hits;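 span of the calcium signal over five minutes; 0% = vehicle and 100% = native peptide agonist; compound fluorescence can raise it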
The depositor's hits bear a star; i = inactive; & = joins results of further samples. This is a subset; count on the stated rates, not on these rows.

compound	NPYLR7 agonist max-min	NPYLR7 agonist
Cc1cc(=O)c(C(=O)NC(C)C2CC2)nn1-c1ccccc1Cl (stereo not drawn)	-8	-9
CCOc1ccc(NC(=O)N2CCN(c3nc(C)nc(C)c3Cc3cccc(C(F)(F)F)c3)CC2)cc1	3	-1
CCOc1ccccc1CNC(=O)c1cc(N2CCc3ccccc3C2)nc2ccccc12	0	4
Cc1ccc(Cc2nsc(N(CCC(=O)N3CC(C)OC(C)C3)Cc3ccco3)n2)cc1 (stereo not drawn)	22	23
Cc1noc(C)c1CNc1ccc(C(C)C)cc1C(C)C	-6	-2
CCCOc1nn(CCC)cc1C(=O)N1CCCCC1	-15	-9
Cc1cccc(=O)n1CCCNc1nc(N(C)C)nc2c1CCNC2	0	16
Cc1nc(-c2ccc(Cl)cc2)nc(N2CCN(C(=O)c3cccc([N+](=O)[O-])c3)CC2)c1Cc1ccccc1	14	8
CN(Cc1ccccc1)Cn1nc(-c2ccncc2)n(-c2ccc(F)cc2)c1=S	5	8
CCOC(=O)NC(=O)COC(=O)CC12CC3CC(CC(C3)C1)C2	1	2
COc1ccc(OC)c(C(O)CN2CCN(C3CCCCC3)CC2)c1 (stereo not drawn)	-11	-8
COc1cc(-c2c[nH]c3ccc(C)cc23)nc(N)n1	11	15
CN(Cc1ccco1)C(=O)CNC(=O)c1ccc2ccccc2c1	-7	-3
CC(C)N(CCC(N)=O)Cc1ncc[nH]1	7	8
CCOC1=NN(c2ccc([N+](=O)[O-])cc2)C(=O)/C1=C\c1ccc(OC)cc1	8	2
C#CCN(CC=C)Cc1nc(-c2cccc(C)c2)oc1C	4	4
COc1ccccc1NC(=O)C1(c2ccc3c(c2)OCCO3)CCCC1	2	5
Cc1ccc2ncccc2c1CN1CCCC(N(C)C)CC1 (stereo not drawn)	-5	2
CCOC(=O)[C@@H]1CN(C(=O)CCc2ccccc2)[C@H]2c3ccccc3O[C@@H]12	8	3
Cc1nc2ncnn2c(N2CCCC(N3CCCCCC3)C2)c1C (stereo not drawn)	1	2
CCOc1ccccc1CN(CC)C(=O)c1ccc(S(C)(=O)=O)cc1	1	2
Cc1cc(-n2cnc3ccccc32)ccn1	-2	4
CNc1nc2cnc(Nc3ccc(Oc4ccccc4)cc3)cc2n1CCOC	-1	6
CC[C@H]1CN2CCc3cc(OC)c(OC)cc3[C@@H]2C[C@@H]1C[C@H]1NCCc2cc(OC)c(OC)cc21	4&-28	5&-5
O=C(CN1CCCC1=O)Nc1cccc(-c2nnc3n2CCCCC3)c1	-3	-2
CCOC(=O)c1cnc(SC)nc1N	-5	-4
N#Cc1nc(COc2ccc(F)cc2)oc1NCCCn1ccnc1	2	-1
Cc1ccccc1C1CN(C(=O)c2ccc(Cl)cc2)CC1C(=O)N1CCOCC1 (stereo not drawn)	5	8
CN1CCN(C(CNS(=O)(=O)Cc2ccccc2)c2ccsc2)CC1 (stereo not drawn)	-8	-7
CSc1ccccc1C(=O)Nc1c2c(nn1C)CCC2	12	13
Cn1c(=O)[nH]c(=O)c2c1nc(N1CCOCC1)n2CCSc1nc2ccccc2[nH]1	3	3
CCCc1nc2ccccc2n1C(C)C	-2	-2
COCCNC(=O)NC(=O)CSc1nnc(C(F)(F)F)n1C	2	-1
FC(F)Oc1ccc(C2=NNC(=NC3CC3)SC2)cc1	0	6
O=C(c1cnc(-c2ccccc2F)s1)N1CCN(CCO)CC1	7	9
Cc1ccc(OCCC(=O)OCC(=O)N2CCCC2)cc1	10	13
CN1C[C@@H](N)C[C@H]1C(=O)N1CCOc2c(O)cc(-c3cccnc3)cc2C1	-2	3
CN(CC1CCOC1)c1nc2ccccc2c(=O)[nH]1 (stereo not drawn)	-5	11
COc1ccccc1-c1nc2cccc(C)n2c1NCc1ccccc1	2&15	0&0
O=S(=O)(CCC1CCCO1)NC1CC1c1cccc(Cl)c1 (stereo not drawn)	0	0
Cc1cc(NC(=O)c2ccc(S(=O)(=O)N3CCc4ccccc4C3)cc2)no1	12	5
COC1CCCN(c2ccc(-c3nc(C4CC4)no3)cn2)C1 (stereo not drawn)	-1	3
CC(=O)Nc1cc(-c2nc3cc(Cl)ccc3o2)ccc1Cl	13	-2
CC(C)c1nc(CNC(=O)/C=C/c2ccc(C(N)=O)cc2)cs1	-4	-3
O=C(NC1CCCN(c2ccc(C(F)(F)F)cn2)C1)c1cnc2ccccn2c1=O (stereo not drawn)	-9	-2
O=C(O)C1CSC(C2CC=CCC2)N1 (stereo not drawn)	6	9
COCCNC(=O)c1nn(-c2ccc(F)cc2)c(=O)n(Cc2cccc(C)c2)c1=O	12	12
COc1ccc(-c2nnc(SCC(=O)N/N=C\c3ccccc3OCC(=O)O)n2-c2ccccc2)cc1OC	-11	-7
CCOC(=O)Nc1cccc(C(=O)N(C)C2CCCCC2)c1	6	6
O=C(O)c1ccc(CSc2nc(-c3ccccc3)cc(N3CCCC3)n2)cc1	17	13
O=S(=O)(Nc1ccccc1Br)c1ccccc1Br	42	1
COc1ccccc1C(C)NC(C)C(=O)Nc1ccccc1C#N (stereo not drawn)	0	3
O=C(NCc1ccncc1)c1ccc(CSc2nc(-c3ccccc3)cc(N3CCN(c4ccccc4Cl)CC3)n2)cc1	-2	-3
CCc1ccccc1-c1cncc(OC)c1	-1	0
CC(C)(C)OC(=O)NCC(NC(=O)c1ccco1)C1CC1 (stereo not drawn)	i	5
Cc1ccc(C)c(Cn2c(-c3nnc(C)o3)cc3ccccc32)c1	-2	-3
N#CCCN(Cc1ccco1)C(=S)Nc1ccc(Cl)cc1Cl	-9	-10
CN(CC(=O)NCC1CC1)Cc1cc(-c2ccco2)on1	-7	-7
COc1ccc(-n2ccnc2CN2CCN3CCN(C)C(=O)C3C2)cc1 (stereo not drawn)	-3	-1
CN1C(=O)NC(c2ccccc2C(F)(F)F)C2=C1CN(CC(=O)NCCCN1CCCC1=O)C2=O (stereo not drawn)	10	2

(next part)
compound	NPYLR7 agonist max-min	NPYLR7 agonist
Cc1ccccc1S(=O)(=O)NC(=O)C1(C)CCN1C(=O)CCc1ccc(Cl)cc1Cl (stereo not drawn)	-4	-1
COc1ccc(OC)c(N2CC(C(=O)N3CCOCC3C)CC2=O)c1 (stereo not drawn)	-8	1
Cn1cc(C(=O)N2CCN(CC(=O)N3CCc4ccccc43)CC2)c2nn(-c3ccccc3)c(=O)c-2c1	-10	-6
O=C(c1ccc(NC2CCSC2)nc1)N1CCC(Cn2cccn2)CC1 (stereo not drawn)	8	12
CC(O)CN(Cc1ccc(Cl)c(Cl)c1)CC(C)O (stereo not drawn)	-11	-8
O=[N+]([O-])c1ccccc1N=Nc1c(O)n(Cc2ccccc2)c2ccccc12	-7	0
Cc1ccc(CNC(=O)CN(C)C(=O)c2ccco2)cc1	2	1
CC(c1ccc(-c2ccc(CN3CCN(C)CC3)cn2)cc1)N1CCOCC1 (stereo not drawn)	-2	-1
CCOCCCn1c(C)cn2c3c(=O)n(Cc4ccc(C)cc4)c(=O)n(C)c3nc12	17	19
O=C(CNC(=O)COc1ccccc1)N=Nc1c(O)[nH]c2ccccc12	-6	-2
O=C(CN1CCCC1)N1CCN(S(=O)(=O)c2cccc(F)c2)CC1	8	0
COC(=O)CC1(NC(=O)CCC2CCCC2)CCOCC1	8	9
O=[N+]([O-])c1ccc(C=NNc2nc(-c3ccc([N+](=O)[O-])cc3)cs2)cc1	-12	-3
O=C(Cc1ccccc1)Nc1ccnn1C1CCN(Cc2cccn2-c2cccnc2)CC1	-3	2
O=C(Cn1c(CO)cnc1SCc1ccccc1)NC1CC1	3	9
C=CC(C)(O)CN(CCN1CCOCC1)Cc1ccsc1 (stereo not drawn)	4	-1
Cc1ccc2c(c1)SC(C(=O)NCC(c1ccco1)N(C)C)C2 (stereo not drawn)	3	7
COCCN(Cc1c(C)nn(-c2cccc(F)c2)c1N1CCN(C)CC1)C(=O)c1ccc(Cl)cc1Cl	21	5
O=C(c1ccco1)N1c2ncccc2Oc2nc3ccccc3nc21	2	4
Cc1ccc(C)c2[nH]c(=O)c(CCNC(=O)C(C)(C)C)cc12	19	-1
Cc1c(CC(=O)N2CCOCC2)c2c(n1CCc1ccccc1)CCCC2=O	1	1
CCCCN(CC(=O)N1CCc2sccc2C1c1ccc(OC)cc1)C(=O)C(C)(C)CCl (stereo not drawn)	20	11
COc1ccc(C(=O)Nc2c3ccccc3nc(=O)n2CCN(C)C)cc1	5	11
c1ccc(-c2nnc(SCC3CCOCO3)n2-c2ccccc2)cc1 (stereo not drawn)	-1	2
O=C(c1ccc(-c2ccccc2)cc1)C1CCCN(C(=O)c2cnn3cccnc23)C1 (stereo not drawn)	-4	2
CC(NC(=O)CCc1cccs1)c1ccc(-n2cncn2)cc1 (stereo not drawn)	9	3
CC1CCN(C(=O)CSc2c(C(C)C)cnc3c2c(=O)n(C)c(=O)n3C)CC1	10	-1
CCN(CCNC(=O)NCC1CCCC1)C(=O)OC(C)(C)C	5	9
Cc1cc(C)c(N=Nc2c(C)[nH]n(-c3ccccc3)c2=O)c(C)c1	-9	-3
Cc1cc(C)n(CCn2ccnc2-c2nc[nH]c2C)n1	-4	-5
CC(C)C(=O)Nc1ccc(SCC(=O)NCC2CCCO2)nn1 (stereo not drawn)	-5	-3
CCNC(=O)C1(C)CCCN1Cc1ccc(C)cc1 (stereo not drawn)	2	3
CCCCc1noc(COc2ccc(C(=O)NC)cc2)n1	5	11
CCCc1cc(C(=O)N2CCCC(c3n[nH]c(=O)n3CC)C2)ccn1 (stereo not drawn)	3	0
Cc1nc(C)c(CCC(=O)N2CCCN(C)c3nc4ccccc4nc32)c(=O)[nH]1	5	8
Cc1cccc(NC(=O)CN(C)C(C)C(=O)Nc2ccc3c(c2)OCCO3)c1C (stereo not drawn)	2	1
CC(C)S(=O)(=O)NC(=O)C1(C)CCN1C(=O)Cc1ccsc1 (stereo not drawn)	-4	-2
CCCCS(=N)(=O)CCC(N)C(=O)O (stereo not drawn)	-10&7	-6&1
CCCOc1ccc(C2NC(=S)NC(C)=C2C(=O)OC)cc1 (stereo not drawn)	-14	-12
Cc1ccc(NC(=O)CN2CCSC3CCCCC32)cc1S(=O)(=O)N(C)C (stereo not drawn)	2	5
CC1(C(=O)NS(=O)(=O)c2ccc(F)cc2F)CCN1C(=O)C1CCCCC1 (stereo not drawn)	0	1
O=C(CCCSc1ccc(NC(=O)C2CC2)nn1)NCc1ccc2c(c1)OCO2	-1	0
Cc1ccc(C=NNC(=O)c2cc(C(C)(C)C)[nH]n2)cc1	10	6
CCOc1ccc(S(=O)(=O)n2nc(C)c(S(=O)(=O)N3CCC(C)CC3)c2C)cc1	2	4
COc1ccc(Cl)cc1Cn1c(C)c(C(=O)NCC(C)C)sc1=O	-3	-3
CCn1c(SCC(=O)NCCOC)nc2c([nH]c3ccccc32)c1=O	-1	-1
O=C(N[C@@H]1CNC[C@H]1O)c1cc(COc2cccc(C(F)(F)F)c2)[nH]n1	-8	4
COc1ccc(-n2cc(CNCCN3CCCC(O)C3)c(-c3ccccc3Cl)n2)cc1 (stereo not drawn)	-6	-7
CCCC(C)c1nnc(NC(=O)c2noc(C)c2COC)s1 (stereo not drawn)	18	24
O=C(CCC(F)(F)F)N1CCCC(CCc2ccc(F)cc2F)C1 (stereo not drawn)	-2	9
O=C(CCc1cc2c(n1-c1ccc(Cl)cc1)-c1ccccc1OC2)NCCCN1CCCC1=O	-5	-4
CCN(CC)CCCn1c2c(c(SCC(=O)Nc3ccccc3OC)nc1=O)CCC2	6	0
O=C(CN1C(=O)COc2ccccc21)Nc1nc2ccc(Cl)cc2s1	5	0
COC(=O)c1ccc(CN2C(=O)C(C)(C)ON=C2c2ccc(NC(C)=O)cc2)o1	8	16
COC(=O)C1CCN(C(=O)COc2ccc(OCc3ccccc3)cc2)CC1	2	1
O=C1N(CCCc2cccnc2)C(=O)C2(CCN(C3CCCC3)CC2)N1Cc1ccccc1	3	17
CC(C)(C)OC(=O)N1CCC(NCCc2ccc(Cl)cc2)C1 (stereo not drawn)	5	6
Fc1cccc(SCc2csc(-c3c(F)cccc3F)n2)c1	-2	2
Cc1cccc(S(=O)(=O)NC(=O)C2(C)CCN2C(=O)c2cc(C)n(C)n2)c1 (stereo not drawn)	-1	1
Cc1cnc2n(c1=O)C(CC(=O)NC1CC1)CS2 (stereo not drawn)	-4	0

Screening data deposited in PubChem by Fisher Drug Discovery Resource Center.
